Compound activity from PubChem.
Sa ugtP lethal: growth inhibition of ugtP-null S. aureus, primary screen, RN4220 ugtP deletion, OD600; 16 h; some inactives read as strong as hits; AID 1259309, 2017; growth inhibition, % (concentration not given with the values); 330,000 compounds, 0.54% hits;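 active means z-score under -3 and OD600 up to 0.15 on both plates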;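 further: plate controls were untreated wells for no effect and antibiotic for full effect; wells of about 80 µL received 100 nL stock; the first replicate is given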
Mtb hypoxia rep: PubChem AID 1159583. M. tuberculosis hypoxia-regulated fluorescent reporter, fluorescence. 300,000 compounds, 0.1% hits. fluorescence inhibition, % (concentration not given with the values);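 active means 35 to 45% if threefold the growth effect, above 45% if 1.5-fold the growth effect; inactive means the rest, general growth blockers included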;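 further: wells of about 50 µL received 100 nL stock; 0% = vehicle wells and 100% = reference inhibitor wells; whole bacteria with a GFP reporter of the hypoxia response; strong numbers were not always called active; many hits fall short of the cut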
Sa RN4220 lethal: growth inhibition of S. aureus RN4220, primary screen, OD600; 16 h; inhibition, % (no concentration beside the values); 330,000 compounds, 0.33% hits;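 active means z-score of -3 or lower and OD600 up to 0.18 on both plates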;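 further: plate controls were untreated cells for no effect and reference antibiotic for full effect; stock transfer was 100 nL into about 80 µL; one replicate is shown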
BJeLR lethal: MLPCN primary cell-based screen for lethality selective to Ras in HRASV12 cells; BJeLR (HRASV12) viability, CellTiter-Glo ATP luminescence, 48 h; reference of the scale not given here; inhibition, % (concentration not given with the values); 300,000 compounds, 0.17% hits;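 active means replicate mean above 50%; inconclusive means above 50% but judged a plate artefact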;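 further: 50 nL library stock added to about 25 µL; numbers are from one replicate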
PrP 5UTR inh: inhibition of PrP 5' UTR reporter expression | cell-based PrP 5' UTR mRNA reporter, plate reader | inhibition, % (no concentration beside the values) | 340,000 compounds, 0.35% hits;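 active means every replicate at 50% or more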;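 further: 0 = median of the neutral control wells; tested in H4 reporter cells; numbers are from one replicate; inactives centre near -14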
Bead autofluor: flagged as autofluorescent in microsphere protease counterscreen. compound autofluorescence counterscreen, microsphere flow cytometry; stronger effect = higher value. fluorescence intensity (no concentration beside the values). 360,000 compounds, 3.1% hits. AID 624483;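 active means at least 3 SD above the mean of all compounds, about 16000 in these data; inconclusive means too few beads counted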;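 further: 100 nL of 1 mM stock went into each well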
Mtb hypoxia rep growth: second read-out of Mtb hypoxia rep, no call of its own (marks repeat the call); growth inhibition, %; measured here: M. tuberculosis growth (absorbance);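 0% = vehicle and 100% = reference antibiotic; read after six days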
Numbers without * were called inactive; ? = inconclusive; nt = not tested or not shown.

1. CC(=O)N1CCN(c2ccc([N+](=O)[O-])c(-n3nc(C)cc3C)c2)CC1
2. Cc1ccc(S(=O)(=O)CC(=O)N2CCN(c3ccc([N+](=O)[O-])cc3)CC2)cc1
3. Cc1ccc(NC(=O)CSc2nnc(CNC(=O)c3ccco3)n2C)cc1C
4. Cc1nc(-c2cccc(NS(C)(=O)=O)c2)cs1
5. Cc1cccc(-c2nc3c(c(SCC(=O)N(C)C)n2)CCCC3)c1
6. COc1cccc(CN(C)CC(=O)Nc2ccccc2C(C)C)c1
7. C[C@@H]1CN([C@@H](C)CO)C(=O)Cc2cc(NC(=O)Nc3ccc4c(c3)OCO4)ccc2O[C@@H]1CN(C)C(=O)NC1CCCCC1
8. COc1ccccc1N1CCN(C2CCCN(C(=O)CCn3cncn3)C2)CC1 (stereo not given)
9. CC1=C(C(=O)Nc2ccccc2)C(c2ccco2)NC(=S)N1 (stereo not given)
10. CCC(=O)NNc1ccc(Br)cc1

assay / entry	1	2	3	4	5	6	7	8	9	10
Sa ugtP lethal	8	6	8	1	4	8	-4	1	3	-5
Mtb hypoxia rep	1	11	0	12	-1	12	-13	-2	4	-6
Mtb hypoxia rep growth	4	11	3	-4	4	8	2	-4	2	-14
Sa RN4220 lethal	-0.3	6.0	1.9	8.2	5.0	4.9	-1.2	-1.7	2.7	-1.3
BJeLR lethal	-1	nt	0	-1	0	7	nt	4	0	-1
PrP 5UTR inh	-9	-9	-4	-13	2	-20	-34	6	-20	-32
Bead autofluor	2538	4676	5380	?	2988	3290	2990	4325	24277*	2213

Overlap with the part before: 4 compounds, then new ones.
7. C[C@@H]1CN([C@@H](C)CO)C(=O)Cc2cc(NC(=O)Nc3ccc4c(c3)OCO4)ccc2O[C@@H]1CN(C)C(=O)NC1CCCCC1
8. COc1ccccc1N1CCN(C2CCCN(C(=O)CCn3cncn3)C2)CC1 (stereo not given)
9. CC1=C(C(=O)Nc2ccccc2)C(c2ccco2)NC(=S)N1 (stereo not given)
10. CCC(=O)NNc1ccc(Br)cc1
11. Cc1ccc(C2(C)NC(=O)N(CC(=O)Nc3ccc4c(c3)OCO4)C2=O)cc1 (stereo not given)
12. O=C(C1CCC(=O)N(C2CC2)C1)N(CCO)Cc1ccccc1 (stereo not given)
13. CC1(C)Oc2ccc3ccc(=O)oc3c2C(=CNc2ccc(O)cc2)C1=O
14. O=C(O)CCc1nc2ccccc2n(CCc2ccccc2)c1=O
15. CC(=O)Nc1ccc(S(=O)(=O)Nc2nnc(C(C)C)s2)cc1
16. CCCc1c(C)nn(C(=O)/C(C#N)=N/Nc2ccccc2[N+](=O)[O-])c1C
17. CC(=O)C1=C(O)C(=O)N(Cc2ccccc2)C1c1ccc(N(C)C)cc1 (stereo not given)
18. CCOc1ccc(NC(=O)c2nccnc2CO)cc1
19. N#Cc1ccccc1S(=O)(=O)N1CCN(C(=O)c2cccc(S(=O)(=O)N3CCCC3)c2)CC1
20. Cc1ccc(-n2c(SCC(=O)OC(C)C)nnc2-c2ccncc2)cc1

assay / entry	7	8	9	10	11	12	13	14	15	16	17	18	19	20
Sa ugtP lethal	-4	1	3	-5	-6	5	3	-3	7	nt	11	6	7	-4
Mtb hypoxia rep	-13	-2	4	-6	6	3	-7	17	5	nt	-1	4	-3	7
Mtb hypoxia rep growth	2	-4	2	-14	10	10	3	8	2	nt	-2	1	-1	5
Sa RN4220 lethal	-1.2	-1.7	2.7	-1.3	-1.6	1.8	6.2	-8.7	3.6	nt	5.3	2.7	2.5	-13
BJeLR lethal	nt	4	0	-1	0	3	nt	1	-1	3	-2	-9	nt	-1
PrP 5UTR inh	-34	6	-20	-32	-35	-18	nt	-13	-7	-10	-9	-155	-16	-19
Bead autofluor	2990	4325	24277*	2213	8768	5415	nt	2898	16628*	3299	3060	12692	5340	2408

21. Cc1ccc(OCCSc2nc3ccccc3n2CC(=O)O)cc1
22. CC(=O)c1ccc(NC(=S)N2CCCC(CO)C2)cc1 (stereo not given)
23. COc1cccc(NC(=O)CN(C)C(=O)C(CCSC)NC(=O)c2ccco2)c1 (stereo not given)
24. Cc1ccc(C)c(Cn2c3ccccc3c3cnn(CC(=O)NCCCN4CCCCC4)c(=O)c32)c1
25. Cc1cccc(-c2nnc(NC(=O)c3ccc(N4C(=O)CCC4=O)cc3)s2)c1
26. O=C(N/N=C/c1coc2ccccc2c1=O)c1cccc([N+](=O)[O-])c1
27. CCC(C)(C(=O)NC1CCCCC1)N(C(=O)c1ccccn1)c1ccccc1 (stereo not given)
28. Cc1ccc2c(c1)c1c(c(=O)n(-c3ccccc3)c(=O)n1CC(=O)NCC1CCCO1)n2C (stereo not given)
29. COc1ccc(NS(=O)(=O)c2cccc(C(=O)N3CCCCCC3)c2)cc1
30. CCOC(=O)C1=C(C)OC(N)=C(C#N)C1c1ccsc1 (stereo not given)

assay / entry	21	22	23	24	25	26	27	28	29	30
Sa ugtP lethal	12	-4	8	-9	15	nt	-2	9	2	1
Mtb hypoxia rep	14	-2	10	8	-8	nt	7	5	1	4
Mtb hypoxia rep growth	-1	7	4	-5	-8	nt	12	-6	-1	17
Sa RN4220 lethal	2.9	1.4	-1.5	-4.0	20	nt	2.7	1.5	3.8	2.7
BJeLR lethal	-6	-13	nt	-20	4	2	-3	-6	-12	7
PrP 5UTR inh	-21	-26	-12	-7	-11	-7	-17	3	-38	1
Bead autofluor	4053	2012	6397	6689	5454	2350	8916	5632	6084	17866*

31. CCC(C)(C)n1nnnc1C(c1ccc(C)cc1)N1CCN(Cc2cccnc2)CC1 (stereo not given)
32. Cc1c(C(=O)N(C)CCC#N)oc2ccc(S(=O)(=O)N3CC(C)CC(C)C3)cc12 (stereo not given)
33. COc1cccc(C=NNC(=O)c2nnn(-c3nonc3N)c2C(C)C)c1
34. S=c1[nH]nc(-c2ccccc2)o1
35. Cc1nn(C)cc1S(=O)(=O)N1CCN(c2cccc(Cl)c2)CC1
36. CN1CCN(c2oc(-c3cccs3)nc2S(=O)(=O)c2ccccc2)CC1
37. COc1cc(OC)nc(Oc2cc(C=NO)ccc2OC)n1
38. CC(=O)Nc1ccc(C2=NN(C)C(=NCc3ccccc3)SC2)cc1
39. COc1cccc(C(=O)N2CCN(C3CCC(c4ccccc4)CC3)CC2)c1 (stereo not given)
40. O=C(CN1C(=O)S/C(=C/c2ccc(N3CCOCC3)cc2)C1=O)N1CCOCC1

assay / entry	31	32	33	34	35	36	37	38	39	40
Sa ugtP lethal	6	0	-5	-5	5	-6	1	-1	3	nt
Mtb hypoxia rep	nt	10	0	nt	10	nt	-3	-1	nt	nt
Mtb hypoxia rep growth	nt	2	-5	nt	2	nt	2	9	nt	nt
Sa RN4220 lethal	2.7	4.7	1.2	5.4	-0.8	0.1	-2.0	-0.7	-0.6	nt
BJeLR lethal	4	0	nt	0	-3	-4	nt	7	8	0
PrP 5UTR inh	-29	-15	nt	-4	5	-12	nt	-48	-9	-32
Bead autofluor	2507	5502	nt	2316	5987	2094	nt	4250	4270	10605

41. CC1=CCC2C(=O)N(c3nc(C)cc(C)n3)C(=O)C2C1 (stereo not given)
42. COc1ccc(-c2cccc(NC(=O)c3cccs3)c2)nn1
43. C/C(=N\N=c1/sc2ccccc2n1C)c1ccccn1
44. COc1ccc(C2/C=C\CN(Cc3ccncc3)CC(=O)N2Cc2ccc(F)cc2)cc1 (stereo not given)
45. CCOC(=O)C1CCN(CCC(=O)Nc2ccc(Br)cc2)CC1
46. CCOc1ccc(N2C(=O)c3cccnc3C2=O)cc1
47. Cc1nn(-c2ccc(F)cc2)c(C)c1CN1CCN(Cc2ccccc2)C(CCO)C1 (stereo not given)
48. O=C(NCc1cccc(C(F)(F)F)c1)c1cc(Cl)ccc1Cl
49. O=C(Nn1c(O)c(C=C2N=c3ccccc3=N2)sc1=S)c1ccccc1Cl
50. COc1ccc(N/C=C/C(=C(C#N)C#N)N(C)C)cc1

assay / entry	41	42	43	44	45	46	47	48	49	50
Sa ugtP lethal	2	-1	nt	nt	8	-4	-4	7	-8	0
Mtb hypoxia rep	2	-2	nt	nt	7	-1	11	-7	5	-12
Mtb hypoxia rep growth	5	-3	nt	nt	-1	7	8	11	5	-9
Sa RN4220 lethal	2.7	3.9	nt	nt	3.4	-0.3	6.7	14	11	2.9
BJeLR lethal	8	-1	1	-2	4	1	-8	5	-8	-3
PrP 5UTR inh	-21	-6	-62	16	-4	-31	-8	-11	2	-17
Bead autofluor	4622	nt	2661	3094	4175	19193*	4371	2572	5061	3604

51. COc1ccccc1OCCC(=O)OCC(=O)Nc1ccc(Br)cc1
52. O=C(NNC(=O)C1CC1)Nc1ccc(Cl)cc1
53. Cc1ccc(N2CC(C(=O)N(C)CC(=O)Nc3ccc(Cl)c(C(F)(F)F)c3)CC2=O)cc1 (stereo not given)
54. Cc1cc(-c2nnc(CCC(=O)NCc3ccc(F)c(F)c3)o2)no1
55. CCCSc1nnc(CSc2nc3ccccc3s2)n1-c1ccccc1
56. Cc1nn(C(C)(C)C)c(OC(=O)c2ccc3c(c2)OCO3)c1Sc1ccccc1
57. Cc1cc(C(=O)COC(=O)c2cccnc2Cl)c(C)n1CC1CCCO1 (stereo not given)
58. Cc1ccc(-c2nn(C)c(=O)c3ccccc23)cc1CN1CCOCC1
59. CCOC(=O)Cn1cc(C(=O)c2ccco2)c2ccccc21
60. CN(C)c1ccc(N2C(=NC(=O)C3CCCO3)SC3CS(=O)(=O)CC32)cc1 (stereo not given)

assay / entry	51	52	53	54	55	56	57	58	59	60
Sa ugtP lethal	7	0	5	-1	-13	79	9	0	3	-1
Mtb hypoxia rep	10	4	8	5	11	1	13	nt	5	-3
Mtb hypoxia rep growth	2	3	-2	2	6	3	3	nt	5	7
Sa RN4220 lethal	4.0	-1.6	1.6	1.4	5.7	-4.4	6.0	4.3	7.5	1.2
BJeLR lethal	4	nt	-8	-9	1	0	10	9	-2	-5
PrP 5UTR inh	-56	-13	-34	-15	-11	-26	59*	-10	-26	-26
Bead autofluor	2496	5970	nt	4718	17205*	4641	4279	2909	9717	5260

61. Cc1ccc2nc(NC(=O)CCNS(=O)(=O)c3cccs3)sc2c1
62. O=C(Nc1nc2ccccc2[nH]1)c1ccc(OC(F)F)cc1
63. CC1(C)CC(=O)C2=C(C1)N(N1CCOCC1)C(N)=C(C#N)C2c1cccs1 (stereo not given)
64. Cc1ccc(C(CNS(=O)(=O)c2ccc(Br)cc2)N2CCN(C)CC2)cc1 (stereo not given)
65. O=C(N=C1SC2CS(=O)(=O)CC2N1c1ccccc1)C1CCCCC1 (stereo not given)

assay / entry	61	62	63	64	65
Sa ugtP lethal	-4	14	17	1	16
Mtb hypoxia rep	4	12	1	7	11
Mtb hypoxia rep growth	13	7	2	9	3
Sa RN4220 lethal	4.3	-1.7	7.2	3.2	1.2
BJeLR lethal	-3	8	5	1	-3
PrP 5UTR inh	-20	-61	-13	-6	-16
Bead autofluor	10854	5808	2462	?	6190
